Compound activity as filed in PubChem BioAssay.
gsp antag: antagonizes gsp, the McCune-Albright syndrome mutation; gsp-mutant cells, cAMP HTRF, 30 min; control for the full effect not named in the record; Potency, µM (titrated, usually from 76.9 µM), without a hit: at the top dose activity change, negative = inhibition, hits mostly inhibitors; actives 0.4% (n = 340,000); AID 624288; active = falling curve of any shape with a large fitted effect; inconclusive = falling curve, mostly with a smaller effect; inactive = flat or rising curve; cell line not stated here;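 note: intracellular cAMP measured with PDE inhibitor Ro 20-1724 present during compound exposure; potency is the fitted concentration of half-maximal effect; % is set by controls: 0 for no effect and ±100 for the full control effect; nearly all actives have a fitted effect of over 65% in size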
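Cells, 2000/well, grown 16–24 h in DMEM 10% FBS with 0.5 mg/ml G418, then compounds plus […] (300 uM addition stock), 30 min at 37C. cAMP read by HTRF (cAMP-d2 and anti-cAMP antibody-K in lysis buffer) after 30 min RT.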
gsp agonist: activates gsp, the McCune-Albright syndrome mutation. gsp mutant cells, cAMP HTRF, 30 min; control for the full effect not named in the record. Potency, µM (doses to about 76.9 µM), for inactives: at the highest dose activation (cAMP increase), usual class: activators. actives 0.13% (n = 340,000). AID 624287; active = well fitted activation curve with a large enough effect; inconclusive = small, poorly fitted or top-dose-only effect, or another doubt; inactive = no such curve, though single readings can be large or run the other way; cell line not stated here;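 note: phosphodiesterase inhibitor Ro 20-1724 added with compounds to block cAMP breakdown; potency is the fitted concentration of half-maximal effect; nearly all actives have a fitted effect of over 60% in size; about a fifth of the inactives were tested at one dose only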
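Cells stably selected in G418 were plated at 2000/well, grown 16-24 hr, then given compounds in DMSO with the PDE inhibitor […] (300 uM solution added) for 30 min at 37C; cAMP was read by HTRF.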
ClpP mod: qHTS Assay for Activators of ClpP. ATP-dependent Clp protease proteolytic subunit (Bacillus subtilis (strain 168)), P80244. purified B. subtilis ClpP, FRET peptide cleavage, 20 min. Potency, µM (highest dose often 57.5 µM), for inactives: top-dose activity change, negative = active. actives 1.9% (n = 340,000); active = well fitted falling curve with a large enough effect; inconclusive = small, poorly fitted or top-dose-only effect; inactive = no such curve, though single readings can be large or run the other way; note: potency is the fitted concentration of half-maximal effect; the source files actives as falling curves though it sought activators and does not explain the sign; nearly all actives have a fitted effect of over 65% in size; many hits overshoot -100%
Target sequence (P80244 whole entry, looked up): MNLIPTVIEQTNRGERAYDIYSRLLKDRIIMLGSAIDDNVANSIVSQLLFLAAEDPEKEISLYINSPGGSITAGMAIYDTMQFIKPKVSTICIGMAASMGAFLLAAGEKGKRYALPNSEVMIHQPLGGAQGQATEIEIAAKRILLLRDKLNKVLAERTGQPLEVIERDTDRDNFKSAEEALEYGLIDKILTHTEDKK
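Purified B. subtilis ClpP, 10 microg/mL final in Tris/HCl pH8 with KCl, BSA, glycerol and Tween-20, cleaved an Abz/nitrotyrosine-quenched decapeptide. Fluorescence (ex 320, em 430) was read at 0 and 20 min at room temperature. Delta was normalized to 5.8 microM ADEP and DMSO/no-enzyme controls.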
TRPML1 ag: agonists of human TRPML1 channel. Q9GZU1. TRPML1-expressing cells, Ca2+ dye fluorescence, FDSS; host cell line not named in the record; reference of the full effect not given here. activation, % (concentration not given with the values). actives 0.12% (n = 410,000). AID 624414; in the data active = activation above about 50%; inconclusive = about 30% to 50%; inactive = below about 30%; note: 0% is about no effect; the text of the record puts the active cut at 80%
Target sequence (Q9GZU1 whole entry, looked up): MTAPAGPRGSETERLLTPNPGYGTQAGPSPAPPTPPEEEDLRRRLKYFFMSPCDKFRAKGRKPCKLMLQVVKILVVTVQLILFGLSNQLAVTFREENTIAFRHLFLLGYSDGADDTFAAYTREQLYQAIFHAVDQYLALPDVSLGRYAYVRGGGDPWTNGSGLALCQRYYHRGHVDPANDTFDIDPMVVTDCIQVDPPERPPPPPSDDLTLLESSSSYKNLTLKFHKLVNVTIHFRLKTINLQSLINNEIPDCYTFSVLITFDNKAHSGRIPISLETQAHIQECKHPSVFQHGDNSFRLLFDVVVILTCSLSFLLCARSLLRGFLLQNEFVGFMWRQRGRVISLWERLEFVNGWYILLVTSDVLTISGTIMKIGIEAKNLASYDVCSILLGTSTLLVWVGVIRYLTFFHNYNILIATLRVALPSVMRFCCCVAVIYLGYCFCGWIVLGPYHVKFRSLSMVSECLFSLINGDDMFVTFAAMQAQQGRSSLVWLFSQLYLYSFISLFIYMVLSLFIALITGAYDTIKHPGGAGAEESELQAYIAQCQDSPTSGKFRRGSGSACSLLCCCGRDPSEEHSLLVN
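Cells: TRPML1-DL, 1X Tet inducer, ~16 h at 37 degrees C/5% CO2. Dye: ABD Ca8 no-wash + quencher, 45-90 min RT. Read: 10 s baseline, compound add, 110 s agonist phase; 54-4 EC80 (4uM final), 110 s antagonist phase.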
TRPML1 inh: blocks the human TRPML1 channel. actives 0.02% (n = 390,000). AID 624415. activity change, negative = inhibition, % (concentration not given with the values). TRPML1-inducible cells, Ca2+ dye fluorescence, FDSS; stronger effect = lower value; inhibition of EC80 agonist-evoked calcium signal. Q9GZU1; in the data active means activity change below about -50%; inconclusive means about -30% to -50%; inactive means above about -30%;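 note: stimulus is agonist 54-4 at its EC80 concentration; % is set by controls: 0 for no effect and ±100 for the full control effect; compound concentration not given in the record; the text of the record puts the active cut at -80%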
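Calcium fluorescence in TRPML1-DL cells induced overnight with Tet: a 110 s read after compound pin addition, then a 110 s antagonist read after challenge with 54-4 at 4 uM final (EC80).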
Menin MLL FP FL: menin-MLL binding inhibition, fluorescein peptide | FP activity change, % at 61.4 µM | 290,000 tested, under 10 active | AID 1766 | Fluorescence polarization, fluorescein-MLL peptide displacement from menin; inconclusive = falling polarisation curve, or a change in total fluorescence; inactive = total fluorescence flat and polarisation flat or rising; no compound was filed as active; the % refers to the polarisation; negative = inhibition;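 note: % of control where 0% means no effect; inhibitors lower the polarisation; unlabelled MLL peptide was the positive control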
* hit, by the source's call; u = inconclusive; x = no result given; [ ] = dose if it differs, or a comment.

Each structure is followed by: gsp antag, gsp agonist, ClpP mod, TRPML1 ag, TRPML1 inh, Menin MLL FP FL
Cc1cccc(C)c1NC(=S)N(Cc1ccccc1)Cc1cccs1
 : u, 3%[15.4 µM], x, 0.4, 1, -1.6
CC(=O)c1ccc(NC(=O)CCc2c(C)nn(-c3ccc4nnc(C)n4n3)c2C)cc1
 : x, x, -7.9%, 0.5, -4, x
CNC(=O)CSc1nnc(COc2ccc(Cl)cc2)n1CCOC
 : 2%, 29%, 0.6%, -0.8, 4, 0.8
Cn1nnnc1SCC(=O)c1cccs1
 : 9%, 6%, 1.0%, 0.6, -4, 2.4
O=C1c2[nH]nc(-c3ccc(F)cc3)c2C(c2ccccc2F)N1c1ccccc1 (stereo unspecified)
 : x, x, 3.0%, 0.0, -6, x
O=C(NC(=O)N1CCN(c2cccc(Cl)c2)CC1)c1ccc(Cl)cc1
 : -6%, 0%[15.4 µM], 1.9%, 0.1, 4, x
CCOC(=O)N1CCN(C(=S)NCCOC)CC1
 : -2%, 3%, 1.7%, 0.0, -4, 4.2
COc1ccc(C(=O)C2CCCN(C(=O)C3CCOCC3)C2)c(C)c1 (stereo unspecified)
 : 1%, u, 0.5%, 0.0, 1, -1.7
O=C(c1ccccc1)N1CCN(c2ncnc3sc4c(c23)CCC4)CC1
 : u, 1%, -4.8%, 0.7, -8, 2.7
COc1ccc(NC(=O)CSc2nc3ccccc3[nH]2)cc1
 : x, x, -0.6%, 2.5, 11, x
COc1cc(C(=O)NC2=NCCS2)ccc1OCc1c(C)noc1C
 : -10%, -29%, -15%, -0.6, 9, 2.6
Cc1ccc(C)c(C(=O)COc2ccc(C)nc2[N+](=O)[O-])c1
 : 5%, -34%[inhibitor], -4.1%, 0.3, 22, 4.9
Clc1ncnc2c1oc1ccccc12
 : 1%, 25%, -24%, -0.4, 31, 5.2
COc1cc(CCC(=O)Nc2cccc(C(F)(F)F)c2)cc(OC)c1OC
 : -5%, -1%, -48%, -0.2, 10, 5.4
COc1cccc(-n2cc(CNCc3cn(C)nc3-c3ccccc3F)cn2)c1
 : -16%, -37%, -23%, 0.7, -24, 1.3
O=C1/C(=C/c2ccccc2)NC(=S)N1C(c1ccccc1)c1ccccc1
 : 16%, 11%, -6.2%, 0.4, 0, -1.6
COc1ccc(Cl)cc1NC(=O)CN(C)C(=O)Cc1ccc(-c2ccccc2)cc1
 : -19%, -5%, 0.5%, -0.2, 5, x
COCc1cccc(C(=O)NC(c2ccccc2)c2ccccc2)c1
 : -29%, -7%[15.4 µM], x, -0.1, 5, 1.5
Cc1onc(-c2ccccc2)c1C(=O)NC(=S)NNC(=O)c1ccc(O)cc1
 : -20%, -10%, -3.1%, 4.5, 11, x
O=c1c2c([nH]c3ccc(Br)cc13)CCCC2
 : 5%, u, -6.0%, 1.4, -16, 2.5
CCOc1ccc(S(=O)(=O)/N=C(\N)c2ccccc2)cc1
 : 2%, -19%[15.4 µM], x, -0.1, -20, 1.4
CCc1cc(C(=O)N=Nc2c(O)[nH]c3ccc([N+](=O)[O-])cc23)c2ccccc2n1
 : -16%, 8%[15.4 µM], x, 2.0, -20, 11
O=C(Nc1ccccc1)c1cccc(N2C(=O)CCC2=O)c1
 : 2%, -17%, -2.4%, 1.1, 4, -0.4
COc1ccc(-c2nc3n(n2)C(=O)CC(c2ccc(Cl)cc2)S3)cc1 (stereo unspecified)
 : x, x, 0.0%, 0.9, 0, x
Cc1cccc(CC(=O)N2CCCC2)c1
 : -2%, -3%, -1.1%, 0.6, -10, -4.3
COc1ccc(N(CC(=O)NCCSc2ccccc2)S(=O)(=O)c2ccccc2)c(OC)c1
 : u, -19%[15.4 µM], 0.9%, 1.2, 9, x
CNc1snc(C)c1C(=O)OCC(=O)c1ccc(OC)c(F)c1
 : -19%, -8%, -0.6%, 4.1, 9, x
O=C(COC(=O)c1ccccn1)Nc1c(Cl)cccc1Cl
 : 2%, u, 3.5%, -0.2, 1, 6.4
CC(C)CCn1c(SCC(=O)NC2CC2)nc2cc(Cl)ccc2c1=O
 : 8%, -26%, -2.5%, 0.2, 15, x
CCn1c(CNC(=O)c2ccc(OC)cc2)nnc1SCC(=O)Nc1ccc(OC)cc1
 : x, x, 0.7%, 0.1, 0, x
CCOC(=O)c1oc2ccc(S(=O)(=O)Nc3ccc4c(c3)n(C)c(=O)n4C)cc2c1C
 : -15%, -4%, 0.2%, 0.1, 0, -1.5
Cc1cc(C)cc(NC(=O)Cn2c(C)cc(C)c(C#N)c2=O)c1
 : x, x, -17%, -0.8, -4, x
C/C(Cl)=C\Cn1c(Nc2cccc(C)c2)nc2c1c(=O)n(C)c(=O)n2C
 : -15%, -9%, -1.2%, 3.4, 15, 1.8
Nc1ccc(N(CCO)CCO)cc1
 : -160%, 7%[15.4 µM], x, 0.8, -3, u
CCn1c(=O)c2cc(C(=O)NCCCN(C)Cc3ccccc3)sc2c2ccccc21
 : x, x, 2.9%, -0.6, 5, x
CC(C)OC(=O)CCCCCN1C(=O)CSC1=S
 : -1%, -10%, 0.2%, 0.5, 59, 2.8
COc1cc(/C=N/NC(=O)c2cccc(S(=O)(=O)N3CCCCC3)c2)cc(Br)c1O
 : -16%, -14%[15.4 µM], -2.0%, -0.2, -30, u
CCc1ccc(NC(=O)Cn2nnc(C(=O)NCc3ccc4c(c3)OCO4)c2N)cc1
 : u, u, -1.0%, 0.0, 15, 3.2
O=C(Nc1ccc(F)cc1F)c1csc(-c2cccs2)n1
 : -11%, -1%[15.4 µM], -29%, 1.6, 14, -0.6
COCCCNC(=O)c1ccc(N2CCOCC2)c(NS(=O)(=O)c2ccc(OC)cc2)c1
 : 2%, -48%[inhibitor], -2.9%, 0.0, -16, 1.4
CCN(CC)C(=O)c1ccc(Nc2nnc(-c3ccc(O)cc3)c3ccccc23)cc1
 : u, -5%, -2.7%, 0.8, 9, -0.9
CCOC(=O)c1c(C)n(C)c2ccc(OC)c(NC(=O)c3cccs3)c12
 : -16%, u, -2.7%, 3.3, 7, -0.5
CC(=O)N[C@@H]1[C@@H](O)[C@@H]2OC(c3ccccc3)OC[C@H]2O[C@@H]1N=[N+]=[N-] (stereo partly specified)
 : -5%, 12%, -0.7%, -0.5, 2, 0.2
COc1ccc(C)cc1NS(=O)(=O)c1c(C(=O)N2CCCCCC2)c(C)n(C)c1C
 : x, x, -1.3%, 1.7, -2, x
CCOC(=O)CC1COCCN1C(=O)c1cc(COc2ccc(F)cc2Cl)on1 (stereo unspecified)
 : -9%, 4%, 1.2%, 1.1, 39, x
Cc1cccc(OCCCn2c(CCNC(=O)C(C)(C)C)nc3ccccc32)c1
 : x, x, -0.4%, 2.0, 25, x
O=C(NCCSc1ccccc1)c1ccccc1Cl
 : 4%, -4%, -2.6%, -0.9, -5, x
COC(=O)c1ccccc1NC(=O)C1CCC(=O)N1S(=O)(=O)c1ccc(C)cc1 (stereo unspecified)
 : 13%, 0%, -1.1%, 0.1, 48, 7.2
Cc1cc(Cl)nc(Cl)c1C(=O)NCCc1ccccc1
 : 4%, -13%, 1.2%, 2.7, 5, x
Cc1cccc(C)c1NC(=O)CNC(=O)c1cncc(Br)c1
 : 7%, -1%[15.4 µM], x, -0.2, 3, -17
COc1cc2cc(CCCOC(=O)CCC(=O)O)oc(=O)c2cc1OC
 : 8%, 20%, u, 0.0, -10, x
Cc1ccc(S(=O)(=O)N2CCCCC2)cc1NC(=O)C1CCN(C(=O)OC(C)(C)C)CC1
 : x, 0%, 0.6%, -1.2, -4, x
CCCCNc1c(-c2ccc(SC3CCCCC3)cc2)nc2cnccn12
 : 8%, u, 28µM*, 0.0, 5, x
CCCS(=O)(=O)NCCc1cc2cc(C)c(C)cc2[nH]c1=O
 : 6%, -41%[inhibitor], u, -0.7, -4, 2.8
O=C1CC(c2cccnc2)c2cc3c(cc2N1)OCCO3 (stereo unspecified)
 : 8%, 20%, -1.9%, -0.9, 7, -1.1
Cc1ccc(OCC(=O)Nc2ccc3c(c2)OC(F)(F)O3)c([N+](=O)[O-])n1
 : 0%, 8%, -1.4%, 0.6, 7, 6.1
CCNC(=O)COc1ccc2ccccc2c1
 : -2%, 0%, -1.2%, -0.6, -1, 4.4
COc1ccccc1-c1nn(CCC(=O)Nc2ccc(C)cc2)c2nc(C)cc(C)c12
 : x, x, 3.3%, 1.8, -1, x
COC(=O)c1ccccc1NCC(=O)c1ccc(OC)cc1
 : 6%, -1%[15.4 µM], x, 1.3, 5, 0.6
OCc1csc(=Nc2ccccc2)n1-c1ccccc1
 : -2%, -56%[inhibitor], 0.0%, -0.5, -2, -0.8

Entries of single compounds from above.
Results for CCOC(=O)CC1COCCN1C(=O)c1cc(COc2ccc(F)cc2Cl)on1 (stereo unspecified) → gsp antag = -9%; gsp agonist = 4%; ClpP mod = 1.2%; TRPML1 ag = 1.1; TRPML1 inh = 39; Menin MLL FP FL = x
Results for Cc1cccc(OCCCn2c(CCNC(=O)C(C)(C)C)nc3ccccc32)c1 → gsp antag = x; gsp agonist = x; ClpP mod = -0.4%; TRPML1 ag = 2.0; TRPML1 inh = 25; Menin MLL FP FL = x
Results for CC(=O)N[C@@H]1[C@@H](O)[C@@H]2OC(c3ccccc3)OC[C@H]2O[C@@H]1N=[N+]=[N-] (stereo partly specified) → gsp antag = -5%; gsp agonist = 12%; ClpP mod = -0.7%; TRPML1 ag = -0.5; TRPML1 inh = 2; Menin MLL FP FL = 0.2

(cont.)
Each structure is followed by: gsp antag, gsp agonist, ClpP mod, TRPML1 ag, TRPML1 inh, Menin MLL FP FL
COc1ccc(S(=O)(=O)N(C)C2(C)CCS(=O)(=O)C2)cc1OC (stereo unspecified)
 : 7%, 6%[15.4 µM], x, -0.2, -16, x
CCOC(=O)c1c(C)n(C)c2ccc(OC)c(NC(=O)CN3CCN(C4CCCCC4)CC3)c12
 : 2%, -1%, -4.5%, 0.0, 13, 6.1
Cc1ccc(S(=O)(=O)Cn2nnnc2CN2CCN(C(=O)c3ccco3)CC2)cc1
 : 2%, -3%, 0.5%, -0.3, 13, 2.3
CC(C)C[C@H](NC(=O)C1CC(=O)N(c2ccc(F)cc2)C1)C(=O)N1CCCCC1 (stereo partly specified)
 : -9%, -22%, -1.5%, -0.6, 0, -0.9
CC1CN(S(=O)(=O)c2ccccc2)CC(C)O1 (stereo unspecified)
 : 1%, -2%, 1.4%, 0.0, -7, -2.3
CCCCCCS(=O)Cc1ccccc1 (stereo unspecified)
 : -4%, -26%, -0.7%, -1.0, 3, -0.3
COc1cccc(NC(=O)N2CCCC2C(=O)NC(C)C)c1 (stereo unspecified)
 : 14%, -2%, -0.2%, -0.7, 9, 2.1

Rows were taken by chance; any-hit rate near 2.1%.
